Screening results (PubChem)
A1 apoptosis 2: blocks A1, raising caspase activity; MEF A1-2A-BIM cells, caspase-Glo luminescence, 3 h; percent of clofoctol response, DMSO zero; caspase activation, % (test concentration not listed); 24,000 tested, under 10 active; in the data active = caspase activation above about 5.9%;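 note: wells of about 30 µL received 50 nL stock; the first replicate is given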
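system = A1-2A-BIM-expressing MEF cells | quantity = 2500 MEF cells/well | dosing = 50 nL compound per well, pinned | schedule = overnight cell settling, then 3 h compound exposure, 37 °C | signal = luminescence from DEVD-luciferin Caspase-Glo reagent, 1:1 in 50 mM HEPES, 1 h RT | read-out = Caspase-3/7 activation, seen as rise in luminescence signal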
* hit, by the source's call. Only part of the results is shown. The share of hits here may be higher or lower than overall.

A first look (2 entries):
SMILES	A1 apoptosis 2
C[C@@H]1CCCCO[C@H](CN(C)S(=O)(=O)c2ccc(Cl)cc2)[C@@H](C)CN([C@@H](C)CO)C(=O)c2cc(NC(=O)C3CCCCC3)ccc2O1	1.4
C[C@H](CO)N1C[C@H](C)[C@@H](CN(C)C(=O)Nc2ccc(F)cc2)OCCCC[C@H](C)Oc2ccc(NC(=O)c3ccccc3)cc2C1=O	0.0

The list itself, previewed entries included:
SMILES	A1 apoptosis 2
C[C@@H]1CCCCO[C@H](CN(C)S(=O)(=O)c2ccc(Cl)cc2)[C@@H](C)CN([C@@H](C)CO)C(=O)c2cc(NC(=O)C3CCCCC3)ccc2O1	1.4
C[C@H](CO)N1C[C@H](C)[C@@H](CN(C)C(=O)Nc2ccc(F)cc2)OCCCC[C@H](C)Oc2ccc(NC(=O)c3ccccc3)cc2C1=O	0.0
Cc1ccc(S(=O)(=O)Nc2cccc3c2O[C@H](CN(C)Cc2ccc(Oc4ccccc4)cc2)[C@H](C)CN([C@H](C)CO)C3=O)cc1	-1.0
O=C(CCCCCCC(=O)Nc1ccccc1O)N/N=C/c1ccc(O)c(F)c1	-1.1
CCCN(C)C[C@@H]1OCCCC[C@@H](C)Oc2ccc(NC(=O)NC3CCCCC3)cc2C(=O)N([C@H](C)CO)C[C@@H]1C	-1.0
CC(C)NC(=O)N(C)C[C@H]1Oc2c(NS(C)(=O)=O)cccc2C(=O)N([C@H](C)CO)C[C@H]1C	-1.5
C[C@H](CO)N1C[C@H](C)[C@H](CN(C)S(=O)(=O)c2ccccc2)Oc2ncc(Br)cc2C1=O	0.1
Cc1noc(C)c1NC(=O)N(C)C[C@@H]1Oc2c(NC(=O)CCCCCC(=O)Nc3ccccc3N)cccc2C(=O)N([C@@H](C)CO)C[C@@H]1C	1.2
Cc1noc(C)c1S(=O)(=O)N(C)C[C@@H]1OCCCC[C@H](C)Oc2ccc(NC(=O)Nc3ccccc3)cc2C(=O)N([C@@H](C)CO)C[C@H]1C	1.1
C[C@@H]1CCCCO[C@H](CN(C)Cc2ccc(Cl)c(Cl)c2)[C@@H](C)CN([C@@H](C)CO)C(=O)c2cc(NC(=O)NC3CCCCC3)ccc2O1	-0.1
C[C@@H]1CN([C@H](C)CO)C(=O)c2cc(NC(=O)CCC(F)(F)F)ccc2O[C@@H](C)CCCCO[C@@H]1CN(C)S(=O)(=O)c1cccs1	0.9
C[C@H]1CN([C@@H](C)CO)C(=O)c2cc(NC(=O)Nc3ccc4c(c3)OCO4)ccc2O[C@H]1CN(C)C(=O)Nc1cccc2ccccc12	0.1
C[C@H]1CN([C@@H](C)CO)C(=O)c2cccc(NC(=O)c3ccncc3)c2O[C@@H]1CN(C)C(=O)NC1CCCCC1	0.2
C[C@H]1CN([C@@H](C)CO)C(=O)Cc2cc(NC(=O)Nc3ccc4c(c3)OCO4)ccc2O[C@H]1CN(C)S(=O)(=O)c1ccc(F)cc1	-0.3
C[C@H]1CN([C@@H](C)CO)C(=O)c2cccc(NC(=O)Nc3cccc4ccccc34)c2O[C@H]1CN(C)C(=O)Nc1ccc(C(F)(F)F)cc1	1.1
Cc1ccc(S(=O)(=O)Nc2ccc3c(c2)CC(=O)N([C@@H](C)CO)C[C@H](C)[C@H](CN(C)Cc2ccc(C(F)(F)F)cc2)O3)cc1	0.4
Cc1noc(C)c1S(=O)(=O)Nc1ccc2c(c1)C(=O)N([C@H](C)CO)C[C@@H](C)[C@@H](CN(C)C(=O)Nc1ccccc1)OCCCC[C@@H](C)O2	-0.5
C[C@@H]1CCCCO[C@@H](CN(C)CC2CCCCC2)[C@@H](C)CN([C@@H](C)CO)C(=O)c2cc(N(C)C)ccc2O1	0.1
C[C@H](CO)N1C[C@H](C)[C@@H](CN(C)C(=O)Nc2ccc(C(F)(F)F)cc2)Oc2ccc(NS(=O)(=O)c3cn(C)cn3)cc2CC1=O	-1.1
COc1ccc(NC(=O)N(C)C[C@H]2Oc3ccc(NC(=O)Nc4ccc5c(c4)OCO5)cc3C(=O)N([C@H](C)CO)C[C@@H]2C)cc1	-0.7
C[C@H](CO)N1C[C@H](C)[C@@H](CN(C)C(=O)Nc2ccc3c(c2)OCO3)Oc2ccc(NC(=O)Cc3cn(C)c4ccccc34)cc2C1=O	-0.5
COc1ccc(Br)cc1/C=N/NC(=O)c1cccc(C(=O)NO)c1	-0.3
C[C@@H]1CN([C@@H](C)CO)C(=O)Cc2cc(NC(=O)c3ccncc3)ccc2O[C@@H]1CN(C)C(=O)Nc1ccccc1	0.5
C[C@@H]1CCCCO[C@H](CN(C)Cc2ccncc2)[C@@H](C)CN([C@@H](C)CO)C(=O)c2cc(NC(=O)c3ccncc3)ccc2O1	-0.3
Cc1noc(C)c1S(=O)(=O)N(C)C[C@H]1OCCCC[C@@H](C)Oc2ccc(NC(=O)CCC(F)(F)F)cc2C(=O)N([C@@H](C)CO)C[C@H]1C	0.4
(cont.)
SMILES	A1 apoptosis 2
C[C@@H]1CN([C@H](C)CO)C(=O)c2cccc(NC(=O)c3ccncc3)c2O[C@H]1CN(C)C	-0.1
C[C@@H]1CN([C@H](C)CO)C(=O)c2cc(NS(=O)(=O)c3cn(C)cn3)ccc2O[C@@H](C)CCCCO[C@@H]1CN(C)C	0.3
C[C@@H]1CN([C@@H](C)CO)C(=O)c2cc(NC(=O)Nc3ccc4c(c3)OCO4)ccc2O[C@@H](C)CCCCO[C@H]1CN(C)Cc1ccncc1	-0.3
CC(C)NC(=O)N(C)C[C@H]1OCCCC[C@@H](C)Oc2ccc(NC(=O)CCCN(C)C)cc2C(=O)N([C@@H](C)CO)C[C@H]1C	-0.2
C[C@@H]1CN([C@@H](C)CO)C(=O)Cc2cc(NC(=O)Nc3ccc4c(c3)OCO4)ccc2O[C@H]1CN(C)C(=O)Nc1ccc(F)cc1	-0.6
C[C@H](CO)N1C[C@H](C)[C@H](CN(C)S(=O)(=O)c2ccc(F)cc2)Oc2ncc(-c3ccc(F)cc3)cc2C1=O	0.8
COc1ccc(C#Cc2ccc3c(c2)[C@]2(C(=O)N3)[C@H](C(=O)NC[C@H](O)c3ccccc3)[C@H]3C(=O)O[C@H](c4ccccc4)[C@H](c4ccccc4)N3[C@@H]2c2ccc(OCCO)cc2)cc1	0.8
COC(=O)CCCCCCC(=O)N/N=C/c1cccc(OCCO)c1	-0.2
C[C@H](CO)N1C[C@H](C)[C@H](CN(C)CC2CC2)Oc2c(NC(=O)C3CCCCC3)cccc2C1=O	0.1
C[C@@H]1CN([C@@H](C)CO)C(=O)Cc2cc(NC(=O)c3ccncc3)ccc2O[C@H]1CN(C)S(=O)(=O)c1ccc(Cl)cc1	-0.1
Cc1noc(C)c1S(=O)(=O)Nc1ccc2c(c1)C(=O)N([C@@H](C)CO)C[C@@H](C)[C@@H](CN(C)S(=O)(=O)c1c(C)noc1C)O2	0.7
C[C@H](CO)N1C[C@H](C)[C@H](CN(C)Cc2ccccc2)Oc2c(NC(=O)c3nc4ccccc4s3)cccc2C1=O	0.5
C[C@@H]1CN([C@@H](C)CO)C(=O)c2cc(NC(=O)NC3CCCCC3)ccc2O[C@H]1CN(C)C(=O)Nc1ccccc1	-0.8
COc1ccc(NC(=O)N(C)C[C@H]2OCCCC[C@@H](C)Oc3ccc(NC(=O)CCC(F)(F)F)cc3C(=O)N([C@H](C)CO)C[C@H]2C)cc1	-0.2
C[C@@H]1CCCCO[C@H](CN(C)CC2CCCCC2)[C@@H](C)CN([C@H](C)CO)C(=O)c2cc(NS(C)(=O)=O)ccc2O1	-0.3
Cc1noc(C)c1NC(=O)N(C)C[C@@H]1OCCCC[C@@H](C)Oc2ccc(N(C)C)cc2C(=O)N([C@H](C)CO)C[C@H]1C	-0.3
CC(C)NC(=O)Nc1ccc2c(c1)C(=O)N([C@H](C)CO)C[C@@H](C)[C@@H](CN(C)S(=O)(=O)c1ccccc1)OCCCC[C@H](C)O2	1.0
C[C@@H]1CCCCO[C@H](CN(C)CC2CC2)[C@H](C)CN([C@@H](C)CO)C(=O)c2cc(NS(=O)(=O)c3ccc(Cl)cc3)ccc2O1	0.1
Cc1noc(C)c1S(=O)(=O)N(C)C[C@H]1Oc2ccc(NS(=O)(=O)c3ccc(F)cc3)cc2CC(=O)N([C@@H](C)CO)C[C@@H]1C	-1.3
Cc1noc(C)c1NC(=O)Nc1ccc2c(c1)CC(=O)N([C@@H](C)CO)C[C@H](C)[C@@H](CN(C)C(=O)Nc1ccc3c(c1)OCO3)O2	-0.5
C[C@H]1CN([C@@H](C)CO)C(=O)Cc2cc(NC(=O)CCC(F)(F)F)ccc2O[C@@H]1CN(C)Cc1ccccc1	1.7
C[C@@H]1CCCCO[C@H](CN(C)C(=O)CCC(F)(F)F)[C@@H](C)CN([C@H](C)CO)C(=O)c2cc(N(C)C)ccc2O1	-0.2
C[C@@H]1CN([C@@H](C)CO)C(=O)c2cc(NC(=O)CCCCCC(=O)Nc3ccccc3N)ccc2O[C@H]1CN(C)C(=O)Nc1cccc2ccccc12	0.5
Cc1noc(C)c1NC(=O)N(C)C[C@@H]1Oc2ncc(C#CCN(C)C)cc2C(=O)N([C@H](C)CO)C[C@@H]1C	1.1
Cc1noc(C)c1NC(=O)N(C)C[C@H]1Oc2ccc(NC(=O)c3ccncc3)cc2C(=O)N([C@H](C)CO)C[C@@H]1C	-0.2

An excerpt from above in order of heavy-atom count, highest first.
SMILES	A1 apoptosis 2
C[C@@H]1CCCCO[C@H](CN(C)Cc2ccncc2)[C@@H](C)CN([C@@H](C)CO)C(=O)c2cc(NC(=O)c3ccncc3)ccc2O1	-0.3
C[C@@H]1CCCCO[C@H](CN(C)CC2CC2)[C@H](C)CN([C@@H](C)CO)C(=O)c2cc(NS(=O)(=O)c3ccc(Cl)cc3)ccc2O1	0.1
C[C@H]1CN([C@@H](C)CO)C(=O)Cc2cc(NC(=O)CCC(F)(F)F)ccc2O[C@@H]1CN(C)Cc1ccccc1	1.7
CC(C)NC(=O)N(C)C[C@H]1Oc2c(NS(C)(=O)=O)cccc2C(=O)N([C@H](C)CO)C[C@H]1C	-1.5
O=C(CCCCCCC(=O)Nc1ccccc1O)N/N=C/c1ccc(O)c(F)c1	-1.1

Following part:
SMILES	A1 apoptosis 2
C[C@H]1CN([C@@H](C)CO)C(=O)Cc2cc(N(C)C)ccc2O[C@@H]1CN(C)C(=O)Nc1ccc2c(c1)OCO2	0.8
Cc1noc(C)c1S(=O)(=O)Nc1ccc2c(c1)CC(=O)N([C@H](C)CO)C[C@@H](C)[C@H](CN(C)C(=O)Nc1ccccc1)O2	-0.3
C[C@@H]1CCCCO[C@@H](CN(C)Cc2ccccc2)[C@@H](C)CN([C@@H](C)CO)C(=O)c2cc(NC(=O)Nc3ccc(C(F)(F)F)cc3)ccc2O1	0.9
Cc1ccc(S(=O)(=O)N(C)C[C@@H]2OCCCC[C@@H](C)Oc3ccc(NC(=O)Nc4ccc5c(c4)OCO5)cc3C(=O)N([C@H](C)CO)C[C@H]2C)cc1	0.3
COc1ccc(NC(=O)Nc2cccc3c2O[C@H](CN(C)C(=O)Nc2ccc4c(c2)OCO4)[C@H](C)CN([C@H](C)CO)C3=O)cc1	0.1
C[C@@H]1CN([C@@H](C)CO)C(=O)c2cccc(N(C)C)c2O[C@H]1CN(C)S(=O)(=O)c1ccccc1	1.3
COc1ccc(NC(=O)Nc2ccc3c(c2)C(=O)N([C@H](C)CO)C[C@H](C)[C@@H](CN(C)S(=O)(=O)c2ccc(C)cc2)OCCCC[C@H](C)O3)cc1	1.8
C[C@@H]1CN([C@@H](C)CO)C(=O)c2cc(NS(=O)(=O)c3ccc(Cl)cc3)ccc2O[C@@H](C)CCCCO[C@H]1CN(C)S(=O)(=O)c1ccc(F)cc1	-0.3
C[C@H]1CN([C@@H](C)CO)C(=O)Cc2cc(NC(=O)Nc3ccc4c(c3)OCO4)ccc2O[C@@H]1CN(C)Cc1ccncc1	-0.8
C[C@@H]1CN([C@H](C)CO)C(=O)CCCn2cc(nn2)CO[C@H]1CN(C)C(=O)Nc1ccc(N2CCCCC2)cc1	-0.1
C[C@H]1CN([C@@H](C)CO)C(=O)c2cc(NC(=O)Nc3ccccc3)ccc2O[C@@H]1CN(C)Cc1ccncc1	0.6
Cc1cc(C(=O)Nc2cccc3c2O[C@H](CN(C)C(=O)NC(C)C)[C@H](C)CN([C@H](C)CO)C3=O)n(C)n1	2.1
COc1ccc(NC(=O)N(C)C[C@@H]2OCCCC[C@@H](C)Oc3ccc(NC(=O)Nc4ccc(F)cc4)cc3C(=O)N([C@@H](C)CO)C[C@H]2C)cc1	0.7
C[C@@H]1CN([C@H](C)CO)C(=O)c2cc(NC(=O)Nc3ccccc3)ccc2O[C@@H](C)CCCCO[C@H]1CN(C)C(=O)Cc1ccccc1	1.7
Cc1noc(C)c1NC(=O)Nc1cccc2c1O[C@@H](CN(C)Cc1ccc3c(c1)OCO3)[C@H](C)CN([C@@H](C)CO)C2=O	0.4
C[C@H](CO)N1C[C@H](C)[C@@H](CN(C)S(C)(=O)=O)Oc2ccc(NC(=O)Nc3ccc(C(F)(F)F)cc3)cc2C1=O	-0.4
COc1ccc(S(=O)(=O)Nc2cccc3c2O[C@@H](CN(C)C(=O)Nc2ccc(C(F)(F)F)cc2)[C@@H](C)CN([C@H](C)CO)C3=O)cc1	-0.4
C[C@@H]1CN([C@@H](C)CO)C(=O)c2cccc(NC(=O)Nc3ccccc3)c2O[C@@H]1CN(C)C	2.2
C[C@H](CO)N1C[C@H](C)[C@H](CN(C)C(=O)CCC(F)(F)F)OCCCC[C@H](C)Oc2ccc(NS(C)(=O)=O)cc2C1=O	-1.0
C[C@@H]1CCCCO[C@@H](CN(C)S(=O)(=O)c2cn(C)cn2)[C@H](C)CN([C@@H](C)CO)C(=O)c2cc(NC(=O)c3ccccc3)ccc2O1	0.5
